Mtb betalactam: beta-lactam sensitization of Mtb H37Rv | M. tuberculosis H37Rv growth with meropenem, percent inhibition; hits of this screen are not shown here | inhibition, % at 25 µM | 330,000 tested, 0.27% active | AID 434955;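 active means about 74% or more and at least 40 points above the plate without the antibiotic, then above 30% in a dose series; inconclusive means first-round hits that could not be retested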;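 further: growth measured after seven days incubation then overnight dye step; 0% = bacteria only wells and 100% = bacteria with antibiotic; twin plates without the antibiotic show which effects depend on it; some results filed as inactive read as strong as hits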
YopH PTP inh: blocks Yersinia enterocolitica YopH tyrosine phosphatase. fluorescence Ex485/Em525. inhibition, %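 (about 10 µM by stock and volumes)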. 140,000 tested, 0.16% active. AID 898;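 active means inhibition of 50% or more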;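 further: controls were vehicle for no effect and minimum signal wells for full effect; inactives centre near -20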
RecA intein inh: inhibitors of M. tuberculosis RecA intein splicing; P9WHJ3; cell-free RecA intein splicing, fluorescence; inhibition, %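 (about 9 µM by stock and volumes)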; 290,000 tested, 0.75% active; AID 2221; in the data active means inhibition above about 30%; inconclusive means no clear call, values can overlap the other calls;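 further: 0% = vehicle wells and 100% = reference inhibitor control wells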
Target sequence (P9WHJ3 whole entry, looked up): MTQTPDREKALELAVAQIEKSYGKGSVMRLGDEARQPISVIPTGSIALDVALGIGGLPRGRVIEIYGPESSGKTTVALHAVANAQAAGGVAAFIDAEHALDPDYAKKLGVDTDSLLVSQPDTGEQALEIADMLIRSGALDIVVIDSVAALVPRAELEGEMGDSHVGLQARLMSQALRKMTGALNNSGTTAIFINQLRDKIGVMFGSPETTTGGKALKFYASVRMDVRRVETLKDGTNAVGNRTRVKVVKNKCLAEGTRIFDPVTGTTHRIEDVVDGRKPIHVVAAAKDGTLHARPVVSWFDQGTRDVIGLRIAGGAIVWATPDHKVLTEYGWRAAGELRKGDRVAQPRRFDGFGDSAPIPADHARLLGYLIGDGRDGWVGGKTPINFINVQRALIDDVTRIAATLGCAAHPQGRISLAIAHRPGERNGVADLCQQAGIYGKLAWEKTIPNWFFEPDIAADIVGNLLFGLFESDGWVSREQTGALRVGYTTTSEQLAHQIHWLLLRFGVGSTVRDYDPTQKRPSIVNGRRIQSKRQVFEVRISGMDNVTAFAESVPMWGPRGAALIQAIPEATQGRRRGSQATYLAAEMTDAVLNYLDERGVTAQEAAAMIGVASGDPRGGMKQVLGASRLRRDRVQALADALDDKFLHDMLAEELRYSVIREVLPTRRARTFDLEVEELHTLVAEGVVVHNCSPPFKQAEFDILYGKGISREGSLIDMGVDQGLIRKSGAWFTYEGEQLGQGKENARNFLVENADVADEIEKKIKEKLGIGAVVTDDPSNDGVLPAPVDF
Arbovirus anti: arbovirus infection inhibition; 200,000 tested, 0.37% active; AID 1251; arbovirus infection cell-based antiviral screen; inhibition, % at 10 µM;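 active means inhibition from about 30%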;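 further: bluetongue infection of BSR cells; cell survival read as ATP light after 72 h; 0% = infected wells without compound and 100% = uninfected wells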
Mtb H37Rv: M. tuberculosis H37Rv growth inhibitors, H37Rv strain (AID 1626) | M. tuberculosis H37Rv growth inhibition; higher % means a stronger effect | one-dose inhibition, % at 10 µM; IC50 in µM for titrated hits | 220,000 tested, 0.95% active;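 active means confirmed in a dose series; inconclusive means inhibition above 80% but not taken into the dose series; inactive means below 80% or under 30% at every dose of the series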;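 further: bacteria incubated seven days before Alamar blue readout; 0% = bacteria only wells and 100% = bacteria with antibiotic wells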
Arbovirus anti repeat: second read-out of Arbovirus anti, no call of its own (marks repeat the call); inhibition, %; measured here: 10K subset replicate screen; many hits read low in the repeat;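 first of two repeat runs on a subset; 0% = infected and 100% = uninfected wells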
The depositor's hits bear a star; ? = inconclusive; / = no result given. Not all compounds are listed. The share of hits here may be higher or lower than overall.

SMILES	Mtb betalactam	YopH PTP inh	RecA intein inh	Arbovirus anti	Mtb H37Rv	others
CSCc1ccc(C(=O)NC(C)c2ccc(-n3ccnc3)cc2)cc1 (stereo not given)	-2.6	/	-0.2	/	/
Cc1ccc(C(=O)N[C@@H](C)CN2C3=NC[C@H](Cc4ccccc4)N3C[C@H]2Cc2ccc(O)cc2)cc1Br	100.1	/	8.3	/	21.4%
CC(C)CNC1=C(C(=S)Nc2ccccc2)C(=O)CC(C)(C)C1	-7.6	3.3	10.9	7.5	13.6%
CCc1cc(=O)oc2cc(C)cc(OCc3nn[nH]n3)c12	-11.0	-33.2	-3.0	9.0	-3.7%
CCC1(C)N=C(c2ccc3c(c2)OCO3)CC(c2ccccc2O)N1 (stereo not given)	-1.8	-25.5	3.1	-26.2	14.6%
Cc1cc(=O)n2nc(N3CCCC(C(=O)NCCCN4CCc5ccccc5C4)C3)sc2n1 (stereo not given)	/	-26.2	-0.1	1.2	/
COC(=O)c1cc(OC)c(OC)cc1NC(=O)CSc1nnnn1Cc1ccccc1	3.7	30.7	1.5	6.7	4.8%
CC(=O)/C=C/c1ccc(C)o1	-0.5	/	0.4	7.2	-7.6%
O=C(CN1CCCCCCC1)Nc1ccc(Cl)cc1Cl	12.6	/	9.4	2.2	-1.9%
CC(C)c1ccc(CNc2ncccn2)cc1	-3.8	/	8.1	/	/
Cc1c(NC(=O)C(C)OC(=O)CCc2ccccc2)c(=O)n(-c2ccccc2)n1C (stereo not given)	-2.6	/	1.8	13.0	-4.4%
CC(=O)Nc1ccc(N=NN2CCOCC2)cc1	0.3	/	-3.9	-18.8	0.5%
COc1ccc(C2=NOC(CNC(=S)N3CCOCC3)C2)cc1 (stereo not given)	3.8	/	0.3	/	13.0%
COc1cc(NC(=O)c2onc(C)c2Cl)cc(OC)c1OC	-2.4	/	2.9	/	/
CCN(Cc1ccccc1)C(=O)COC(=O)c1cc(S(=O)(=O)Nc2c(C)n(C)n(-c3ccccc3)c2=O)ccc1C	8.7	/	-1.4	4.8	2.1%
Cc1c(Cl)cccc1NC(=O)CS(=O)(=O)c1ccccc1	7.9	/	-3.3	/	/
Cc1nc2ccc(NC(=S)N3CCN(c4ccccn4)CC3)cc2nc1C	1.5	-21.1	-4.3	-2.2	/
O=C(Nc1ccc(Oc2ncccn2)cc1)c1ccco1	-10.7	-34.6	1.0	3.5	-6.2%
CCCCOC(=O)c1ccc(NC(=O)c2ccoc2C)cc1	33.1	-4.8	0.2	1.1	-10.2%
Cc1cccc(NC(=O)C(C)SCc2nc3sc4c(c3c(=O)[nH]2)CCCC4)n1 (stereo not given)	-1.1	/	-2.0	/	/
COc1ccccc1NC(=O)N1c2ccc(F)cc2CCC1C (stereo not given)	30.8	-21.8	4.9	2.6	-6.0%
Nc1c(N(CCC2=CCCCC2)C(=O)CCCOc2ccccc2)c(=O)[nH]c(=O)n1Cc1ccccc1	-0.5	/	-1.7	/	/
Cc1ccccc1OCCC(=O)Nc1ccc(N2CCOCC2)cc1N1CCOCC1	5.7	/	-5.2	/	/
Cn1c(N)c(C(=O)COC(=O)c2cnc(Cl)c(Cl)c2)c(=O)n(C)c1=O	-8.4	/	-1.0	4.2	-6.5%
CCC(=O)Nc1nc2ccc3sc(C)nc3c2s1	0.8	/	1.7	-11.1	3.7%
CCOc1cc(NC(=S)NCC2CCCO2)c(OCC)cc1NC(=O)C1CC1 (stereo not given)	3.3	/	1.7	4.9	-1.8%
O=C1SCCC1NS(=O)(=O)c1ccccc1[N+](=O)[O-] (stereo not given)	-7.0	/	-4.2	3.3	-1.7%
O=C1C(Cl)=C(N2CCCCC2)C(=O)N1c1ccccc1Cl	92.8	3.3	76.7*	15.6	3.1%
COCCN(C(=O)c1snc(C(N)=O)c1N)C(C(=O)NC1CCCCC1)c1ccc(OC)c(OC)c1 (stereo not given)	-3.1	/	-0.7	/	/
CCOc1ccc(CN2CCN(Cc3cn(CC)nc3C)CC2CCO)cc1 (stereo not given)	-10.8	/	0.2	-10.6	5.4%

Part of the list above in order of heavy-atom count, rising:
SMILES	Mtb betalactam	YopH PTP inh	RecA intein inh	Arbovirus anti	Mtb H37Rv	others
CC(C)c1ccc(CNc2ncccn2)cc1	-3.8	/	8.1	/	/
O=C1C(Cl)=C(N2CCCCC2)C(=O)N1c1ccccc1Cl	92.8	3.3	76.7*	15.6	3.1%
Cc1nc2ccc(NC(=S)N3CCN(c4ccccn4)CC3)cc2nc1C	1.5	-21.1	-4.3	-2.2	/

Next part.
SMILES	Mtb betalactam	YopH PTP inh	RecA intein inh	Arbovirus anti	Mtb H37Rv	others
Cc1ccc(S(=O)(=O)N(C)CC(=O)Nc2cccc3c2CCCC3)cc1	-5.6	-44.5	0.3	-3.3	3.7%
CCN1CCN(C2=NC(=O)/C(=C/c3ccc(C)o3)S2)CC1	-1.3	6.9	-4.9	2.4	-7.3%
CC(=O)N(C)N(C)c1cc(C)nc(N)n1	-6.3	/	-0.5	/	2.6%
O=C(Cn1nc(-c2ccc(Cl)cc2)ccc1=O)N1CCN(c2ccccc2)CC1	6.3	-29.6	3.1	-4.2	/
COCCCNC(=O)C1CC(=O)N(CCc2ccc(F)cc2)C1 (stereo not given)	-0.9	/	-2.0	/	/
CCN(CC)C(=O)c1ccc2c3c(cccc13)C(=O)N(CCc1ccc(OC)c(OC)c1)C2=O	2.1	-35.6	-0.6	5.2	-5.0%
Cc1cc(NC(=O)C(C)SCC(=O)Nc2cc(C(F)(F)F)ccc2N2CCCCC2)no1 (stereo not given)	-1.3	/	4.8	/	/
COc1ccc(-c2noc(N3CCC(C(=O)Nc4cc(OC)c(OC)c(OC)c4)CC3)n2)cc1	6.4	/	-1.1	/	/
COc1ccc(CC(=O)NNC(=O)c2cc(C)oc2C)cc1OC	-10.4	/	0.5	/	/
CNCCCOc1ccc(C)cc1Br	4.4	-16.6	-0.3	6.0	-2.2%
Oc1ccccc1C=NCCN=Cc1ccccc1O	-8.2	/	5.5	/	-6.0%
Cc1cccc(CS(=O)(=O)Cc2ccc(C(=O)NC3CCCCC3)o2)c1	3.6	/	-0.1	/	/
COc1cccc(OC)c1/C=C/C(=O)NC1CCCCC1	-7.7	/	-2.2	/	/
Cc1cc(=O)[nH]c(SCCOc2ccc3c(c2)CCC3)n1	-0.8	-20.3	2.3	4.3	-0.7%
CCCOc1ccccc1OCC(=O)Nc1cc(Cl)ccc1-n1cncn1	-11.7	/	-0.6	/	/
CCOC(=O)C1=C(N)Oc2ccc3ccccc3c2C1c1cccc(O)c1 (stereo not given)	2.5	/	8.4	/	/
COC(=O)C1=C(c2ccccc2)C[C@@H]2CC[C@H]1N2C(=O)NCc1ccccc1	-6.6	/	1.0	/	-9.2%
CSc1nc(S(=O)(=O)c2ccccc2)c(Cl)s1	3.8	/	-0.3	-1.8	8.1%
COc1ccc(C(CC(=O)N2CCOCC2)c2c(O)cc(OC)cc2OC)cc1 (stereo not given)	1.9	/	-3.2	/	-5.7%
Cn1nc(C(F)(F)F)c2cc(C(=O)O)sc21	2.9	/	/	-0.7	4.2%
O=C(NCCCN1CCCC1=O)c1cccc(S(=O)(=O)Nc2ccc(Br)cc2)c1	-5.0	/	-3.7	/	/
O=C(O)CN1C(=O)/C(=C/c2cccc(Cl)c2)Oc2ccccc21	5.9	/	-7.8	/	/
Cc1ccc(-c2nc(NCCN3CCOCC3)c3ccccc3n2)cc1	40.2	-46.3	2.0	2.9	15.2%
C=CCn1c(SCN2C(=O)c3ccccc3C2=O)nc2ccc(Cl)cc2c1=O	1.6	-18.5	0.1	6.2	73.1%
Cc1cc(C(F)(F)F)n(-c2nc(C(=O)N/N=C/c3ccc(F)cc3)cs2)n1	9.4	-4.3	7.1	-13.3	2.9%
O=[N+]([O-])C(C1CCS(=O)(=O)C1)C1CCS(=O)(=O)C1 (stereo not given)	-5.8	/	-3.5	24.5	6.6%
COc1ccc(S(=O)(=O)N(C)c2ccc(C(N)=O)cc2)cc1	-4.4	-18.8	-0.5	-3.5	3.0%
N#Cc1c(-c2ccc(F)cc2)cc(-c2cccnc2)nc1N	?	-9.2	-1.8	-2.2	-1.0%
COc1ccc(OC(C)C(=O)N(C)Cc2nc(-c3ccccc3)no2)cc1 (stereo not given)	2.7	/	0.9	/	/
Cc1ccc(-c2noc(CN(C(=O)c3ccc4c(c3)OCO4)C(C)C)n2)cc1	1.3	/	0.3	/	/
CC(=O)Nc1ccc(C(=O)N/N=C/c2ccccc2OC(=O)c2ccc(Cl)cc2)cc1	45.0	1.0	7.4	-30.4	1.3%
CC1CCN(c2oc(-c3ccco3)nc2S(=O)(=O)c2ccccc2)CC1	-5.2	/	9.2	/	/
CCCCn1c(N)c(N(CC(C)C)C(=O)c2cccs2)c(=O)[nH]c1=O	-7.8	/	-2.6	/	/
CCC(C)Nc1nnnc2c1sc1nc3c(cc12)COC(C)(C)C3 (stereo not given)	23.1	/	-4.9	2.5	15.5%
CCOC(=O)N1CCN(C(=O)CSc2nc3c([nH]c4ccccc43)c(=O)n2C)CC1	6.0	-39.8	-2.0	3.0	0.4%	Arbovirus anti repeat=-3.1
CCN(CC)CCCNC(=O)c1cn(-c2cccc(OC)c2)c(=O)c2ccccc12	8.2	/	-0.9	/	/
Cc1ccc(CSc2nnc(SCC(=O)N/N=C/c3ccc(C(=O)O)cc3)s2)cc1	54.0	/	-4.4	/	8.8%
COc1cc(C(=O)N/N=C/c2sccc2C)cc(OC)c1OC	/	/	6.8	-11.1	-12.7%
Cc1cccn2c(=O)c(C=O)c(Nc3ccc(S(N)(=O)=O)cc3)nc12	4.6	/	-3.2	/	/
O=C(CC(=O)Nc1ccccc1C(F)(F)F)Nc1ccccc1C(F)(F)F	-0.5	/	-2.3	/	/
O=C(OCC(=O)N1CCOCC1)c1ccc2[nH]c3c(c2c1)CCCC3	-6.5	/	-2.4	/	-4.1%
Cc1cccc(NC(=O)CSc2nnnn2-c2ccc3c(c2)OCCO3)n1	-1.4	/	-2.3	-5.1	-2.8%
CCOC(=O)N1CCN(C(=O)CCSc2ccccc2)CC1	-4.5	-25.1	0.5	3.8	-4.3%	Arbovirus anti repeat=5.1
Cc1nn(C(=O)N2CCCCC2)c(C)c1CN1C(=O)c2ccccc2C1=O	1.1	-8.2	/	-1.8	5.6%
CCC(C)N1C(=O)CCC1C(=O)O (stereo not given)	1.2	-30.2	-0.5	4.3	1.8%
O=C(c1cccc(C(F)(F)F)c1)C1CCCN(Cc2cccn2-c2ncccn2)C1 (stereo not given)	-0.7	/	0.9	-6.4	1.4%
CCOc1ccccc1NC(=O)c1nc(-c2ccccc2)oc1C	1.9	/	0.6	-5.4	2.1%

Among those listed so far, eleven contain a Cl atom:
SMILES	Mtb betalactam	YopH PTP inh	RecA intein inh	Arbovirus anti	Mtb H37Rv	others
O=C(CN1CCCCCCC1)Nc1ccc(Cl)cc1Cl	12.6	/	9.4	2.2	-1.9%
COc1cc(NC(=O)c2onc(C)c2Cl)cc(OC)c1OC	-2.4	/	2.9	/	/
Cc1c(Cl)cccc1NC(=O)CS(=O)(=O)c1ccccc1	7.9	/	-3.3	/	/
Cn1c(N)c(C(=O)COC(=O)c2cnc(Cl)c(Cl)c2)c(=O)n(C)c1=O	-8.4	/	-1.0	4.2	-6.5%
O=C1C(Cl)=C(N2CCCCC2)C(=O)N1c1ccccc1Cl	92.8	3.3	76.7*	15.6	3.1%
O=C(Cn1nc(-c2ccc(Cl)cc2)ccc1=O)N1CCN(c2ccccc2)CC1	6.3	-29.6	3.1	-4.2	/
CCCOc1ccccc1OCC(=O)Nc1cc(Cl)ccc1-n1cncn1	-11.7	/	-0.6	/	/
CSc1nc(S(=O)(=O)c2ccccc2)c(Cl)s1	3.8	/	-0.3	-1.8	8.1%
O=C(O)CN1C(=O)/C(=C/c2cccc(Cl)c2)Oc2ccccc21	5.9	/	-7.8	/	/
C=CCn1c(SCN2C(=O)c3ccccc3C2=O)nc2ccc(Cl)cc2c1=O	1.6	-18.5	0.1	6.2	73.1%
CC(=O)Nc1ccc(C(=O)N/N=C/c2ccccc2OC(=O)c2ccc(Cl)cc2)cc1	45.0	1.0	7.4	-30.4	1.3%

Assay outcomes: PubChem BioAssay, several laboratories
